From PubChem BioAssay
HSV replic up = enhancers of HSV replication in host cells, fold increase, host cell viability. HSV replication augmentation in cells. maximum fold increase. 220,000 tested, 0.005% active. AID 1956, 2009;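 active = peak rise of 1.5-fold or more in the series; tested in PC3 cells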;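 note: first round at 10 µM; read as green reporter fluorescence; hits show the peak of a series up to 25 µM; 1 = signal of infected wells without compound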
PKD1 kinase inh = inhibitors of human PKD1 kinase, biochemical, fluorescence polarization | Serine/threonine-protein kinase D1 (Homo sapiens), Q15139 | PKD1 kinase fluorescence polarization assay | inhibition, %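 (about 10 µM by stock and volumes)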 | 200,000 tested, 0.056% active;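 active = inhibition of 50% or more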;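 note: controls were vehicle for no effect and a reference inhibitor for full effect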
RGS16-Gao = modulators of RGS16 binding to Galphao, primary screen, biochemical, human proteins, multiplexed bead flow cytometry. binding response (% of control), % at 10 µM. AID 1441, 2008. 220,000 tested, 0.38% active. Regulator of G-protein signaling 16 (Homo sapiens) + Guanine nucleotide-binding protein …. bead-based flow cytometry RGS16-Galphao binding, fluorescence; actives lie on both sides;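 active = below 25% or above 175%, edge rows of some plates excepted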;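 note: Galphao activated by GDP with aluminum fluoride before binding; 100% = wells without compound and 0% = beads without RGS; some results beyond the cut were filed as inactive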
Target sequence (O15492 whole entry, looked up): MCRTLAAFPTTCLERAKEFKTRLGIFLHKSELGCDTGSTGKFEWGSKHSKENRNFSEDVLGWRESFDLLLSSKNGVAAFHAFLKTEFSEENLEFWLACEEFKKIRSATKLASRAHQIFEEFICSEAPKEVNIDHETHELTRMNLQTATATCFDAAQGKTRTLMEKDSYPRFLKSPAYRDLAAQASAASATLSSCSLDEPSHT
Target sequence (P09471 whole entry, looked up): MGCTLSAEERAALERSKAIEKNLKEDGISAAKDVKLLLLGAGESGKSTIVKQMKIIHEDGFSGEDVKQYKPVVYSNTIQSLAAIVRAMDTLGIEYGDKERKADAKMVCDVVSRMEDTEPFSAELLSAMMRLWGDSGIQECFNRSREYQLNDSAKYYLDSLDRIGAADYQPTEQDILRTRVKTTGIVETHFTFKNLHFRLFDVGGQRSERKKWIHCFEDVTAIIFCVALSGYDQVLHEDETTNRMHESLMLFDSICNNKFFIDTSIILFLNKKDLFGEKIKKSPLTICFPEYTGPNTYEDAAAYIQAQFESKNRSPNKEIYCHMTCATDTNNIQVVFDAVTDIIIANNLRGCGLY
INS promoter inh = inhibitors of insulin promoter-driven GFP, primary screen, imaging, TRM-6 cells (human fetal islet line), eGFP reporter, cell count. reporter expression induced with tamoxifen. inhibition, % at 2 µM. 130,000 tested, 0.9% active. AID 1273, 2008;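 active = inhibition above the mean plus 3 SD, with well images judged a real hit on visual review, cut at about 60% in these data, passing the limit was not always enough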
GALR2 ag = GALR2 receptor agonists, primary screen, cell-based; Galanin receptor type 2 (Homo sapiens), O43603; GALR2-expressing cells, agonist activation read-out; activation, %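 (tested at 5 µM)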; 140,000 tested, 0.48% active;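 active = above mean plus 3 SD of all compounds, about 5% in these data, not always enough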;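 note: 0% = vehicle buffer wells and 100% = reference agonist at full effect; tested in CHO reporter cells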
Target sequence (O43603 whole entry, looked up): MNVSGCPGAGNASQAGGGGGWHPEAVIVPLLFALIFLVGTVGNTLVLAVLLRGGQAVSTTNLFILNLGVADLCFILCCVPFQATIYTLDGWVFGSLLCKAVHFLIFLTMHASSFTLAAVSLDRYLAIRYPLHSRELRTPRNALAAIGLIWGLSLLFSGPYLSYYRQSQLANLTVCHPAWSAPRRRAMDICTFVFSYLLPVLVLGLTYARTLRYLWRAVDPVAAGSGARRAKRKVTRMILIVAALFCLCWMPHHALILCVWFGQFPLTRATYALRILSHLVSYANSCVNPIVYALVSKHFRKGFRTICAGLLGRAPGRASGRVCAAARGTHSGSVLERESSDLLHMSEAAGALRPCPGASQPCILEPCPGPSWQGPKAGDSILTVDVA
INS promoter inh cell count = second read-out of INS promoter inh, no call of its own (marks repeat the call); normalized cell count, %; measured here: cell count, toxicity; reference of the scale not given here;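 cells exposed to compound for 48 h; stained nuclei by imaging scaled within each plate; lower means fewer cells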
HSV replic up primary fold = recorded beside HSV replic up, whose call it bears; fold increase; compound at 10 µM; measured here: primary screen fold increase 10 uM; tested in PC3 cells;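 GFP signal in the first replicate; 1 = infected wells without compound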
* hit, by the source's call; i = inactive; nt = no result given; & = joins results of further samples; [ ] = remark or other dose.

SMILES	HSV replic up	HSV replic up primary fold	PKD1 kinase inh	RGS16-Gao	INS promoter inh	INS promoter inh cell count	GALR2 ag
Cc1ccc(-c2noc(-c3ccccc3C(=O)N3CCN(C)CC3)n2)cc1	i	0.89	-16	98	-64	66	-2.4
Cc1cc(NC(=O)CSc2nc3ccccc3c(=O)n2Cc2ccccc2)no1	i	0.91	-4	98	43	71	0.0
CCOC(=O)N1CCN(C(=S)NC(C)(C)C)CC1	i	0.75	1	105	15	143	-2.1
CCNc1nc(OCCNS(=O)(=O)c2cc(C)ccc2C)nc(N(C)C)n1	i	0.83	-19	112	nt	nt	-2.6
O=C(CSc1nc(-c2ccco2)cc(C(F)(F)F)n1)Nc1ccccc1C(F)(F)F	i	0.77	0	92	17	119	-0.1
CC1(C)CC(CC(=O)Nc2ccccn2)C(=O)O1 (centres undefined)	i	0.75	-12	105	-25	92	-0.2
O=C(Nc1ncccn1)c1cccs1	i	0.98	5	104	nt	nt	-1.8
O=C(CSc1cccc[n+]1[O-])Nc1ccc2c(c1)OCO2	i	0.97	-6	104	nt	nt	nt
CCOC(=O)c1ccc(NC(=O)c2cccc(S(=O)(=O)N3CCOCC3)c2)cc1	i	1	-9	93	nt	nt	-3.9
O=C(CSc1ccc2nnc(-c3cccnc3)n2n1)c1ccccc1	i	0.98	112*	101	nt	nt	nt
COc1c(Cl)cc(-c2noc(C)c2C(=O)NCCc2ccc(C)cc2)cc1Cl	i	1	4	101	nt	nt	-2.3
CCOc1ccc2c(c1)c1nnc(SCC3CCCO3)nc1n2C (centres undefined)	i	0.8	-1	103	nt	nt	0.9
Cn1cccc1Cc1nnc(SCC(=O)NCc2ccccc2Cl)n1-c1ccc(F)cc1	i	0.96	5	107	nt	nt	0.2
C/C(CCc1ccccc1)=N\NC(=O)c1ccc(CN2CCOCC2)cc1	i	0.98	-3	109	nt	nt	nt
Cc1cc(C)cc(N(CC(=O)NCc2ccco2)C(=O)c2snc(C(N)=O)c2N)c1	i	0.74	-1	97	-38	132	-0.7
O=C(CSc1cccc2cccnc12)N1CCCC1	i	0.58	0	101	nt	nt	0.2
CSc1cccc(NC(C)C(=O)NCc2ccccc2)c1 (centres undefined)	i	0.88	-1	99	-33	177	nt
COCCN(C(=O)CSc1nnc2cc(C)c3ccccc3n12)c1c(N)n(Cc2ccccc2)c(=O)[nH]c1=O	i	0.87	3	99	-10	95	-0.1
Cc1cccc(NC(=O)CN2C(=O)COc3ccc(Cl)cc32)c1	i	0.84	nt	102	nt	nt	nt
Cc1c(N(C(=O)c2ccccn2)C2(C(=O)NC3CCCC3)CCCCC2)c(=O)n(-c2ccccc2)n1C	i	0.99	-12	105	nt	nt	nt
CN(C)CCN(Cc1ccc(Cl)cc1)c1ccccn1	i	0.65	-1	89	0	97	-0.5
CCOC(=O)C1CCN(S(=O)(=O)c2c(C)n(C)c(=O)n(C)c2=O)CC1	i	0.75	8	104	nt	nt	-3.0
CCOC(=O)c1c(C)[nH]c(N=Nc2cccc(OC)c2)c1C	i	0.96	2	98	nt	nt	nt
O=C(N/N=C/c1cccnc1)c1ccco1	i	0.97	nt	102	nt	nt	nt
Cc1ccc(Cn2c(S(=O)(=O)O)nc3ccccc32)cc1	i	0.97	-2	99	5	68	-2.4

Five compounds already listed, arranged by the number in RGS16-Gao, largest number first.
canonical_smiles | RGS16-Gao
Cn1cccc1Cc1nnc(SCC(=O)NCc2ccccc2Cl)n1-c1ccc(F)cc1 | 107
CCOC(=O)N1CCN(C(=S)NC(C)(C)C)CC1 | 105
CCOc1ccc2c(c1)c1nnc(SCC3CCCO3)nc1n2C (centres undefined) | 103
Cc1cc(C)cc(N(CC(=O)NCc2ccco2)C(=O)c2snc(C(N)=O)c2N)c1 | 97
CN(C)CCN(Cc1ccc(Cl)cc1)c1ccccn1 | 89

Part of the list above in order of heavy-atom count, smallest number first.
SMILES	HSV replic up	HSV replic up primary fold	PKD1 kinase inh	RGS16-Gao	INS promoter inh	INS promoter inh cell count	GALR2 ag
O=C(CSc1cccc2cccnc12)N1CCCC1	i	0.58	0	101	nt	nt	0.2
CSc1cccc(NC(C)C(=O)NCc2ccccc2)c1 (centres undefined)	i	0.88	-1	99	-33	177	nt
O=C(CSc1ccc2nnc(-c3cccnc3)n2n1)c1ccccc1	i	0.98	112*	101	nt	nt	nt
CCOC(=O)c1ccc(NC(=O)c2cccc(S(=O)(=O)N3CCOCC3)c2)cc1	i	1	-9	93	nt	nt	-3.9
COCCN(C(=O)CSc1nnc2cc(C)c3ccccc3n12)c1c(N)n(Cc2ccccc2)c(=O)[nH]c1=O	i	0.87	3	99	-10	95	-0.1

Later entries.
SMILES	HSV replic up	HSV replic up primary fold	PKD1 kinase inh	RGS16-Gao	INS promoter inh	INS promoter inh cell count	GALR2 ag
COc1ccc(NC(=O)c2ccc3snnc3c2)cc1	i	0.93	-6	104	-20	142	-0.9
COc1ccc(C2=NOC(C(=O)NCc3ccc(F)cc3)C2)cc1 (centres undefined)	nt	nt	-2	89	-27	67	1.0
COc1ccc(NC(=O)Nc2ccc(Br)c(C)c2)cc1	i	0.99	5	101	-5	126	nt
CCOCCCNC(=S)N1CCCN(c2nc3cc(C)ccc3cc2C#N)CC1	i	1.1	5	103	-85	82	nt
COc1cc(OC)cc(C(=O)Nc2ccc(CN3CCCCC3)cc2)c1	i	0.97	-1	101	nt	nt	nt
O=C(O)c1c(Cl)c(Cl)c(Cl)c(Cl)c1C(=O)N1CCCC1	i	0.96	-2	139	22	44	-1.2
CC(=O)NC12CC3CC(C1)CC(C(=O)OCC(=O)Nc1ncc(Cl)cc1Cl)(C3)C2	i	0.91	4	99&115	44	105	-1.6
N#CC(c1ccc(Cl)cc1)c1cccc(Cl)n1 (centres undefined)	i	0.96	-6	106	-20	157	nt
Cc1cc(C)c2cc(CN(Cc3cccnc3)C(=O)c3ccc(F)cc3)c(Cl)nc2c1	i	0.96	8	105	-130	96	-1.5
Cc1nn(CC(=O)Nc2ccc(N(C)C)cc2)c(C)c1[N+](=O)[O-]	i	0.92	-4	97	-23	85	-1.0
COc1cc(C(=O)N2CCC(NC(=O)C(Cc3ccc(C(C)C)cc3)NC(C)=O)CC2)cc(OC)c1OC (centres undefined)	i	0.78	-3	101	-14	195	-2.0
Cc1ccc(S(=O)(=O)CC(=O)c2ccc(C)c([N+](=O)[O-])c2)cc1	i	0.98	-14	103	43	105	-1.2
CCC(C)NC(=O)C1(NC(=O)Nc2ccccc2)CCCCC1 (centres undefined)	i	1	-1	50	36	96	nt
Cc1cc(SCC(=O)N2CCCC2)nc2ccccc12	i	0.85	-16	103	nt	nt	-0.8
CCn1c(SCC(=O)Nc2cc(S(=O)(=O)N3CCOCC3)ccc2OC)nnc1-c1ccncc1	i	0.81	0	98	nt	nt	nt
Cc1ccc(S(=O)(=O)N(C)CC(=O)N2CCCC2)cc1	i	1	3	95	-267	72	-0.5
CN(C)c1ccc(C(=O)c2ccccc2C(=O)O)cc1[N+](=O)[O-]	i	0.92	-4	89	47	104	nt
CCOc1ccc(C(=O)NNC2CC(=O)N(Cc3ccc(Cl)cc3)C2=O)cc1OC (centres undefined)	i	1	-3	103	nt	nt	nt
Cc1[nH]c2ccc(F)cc2c1CCN(Cc1ccco1)C(=S)NC(C)(C)C	i	1.1	-8	100	-347	88	nt
COC(=O)c1ccc(C2NC(C(=O)O)CS2)cc1 (centres undefined)	i	0.89	-2	98	29	135	-1.6
CCN(CC)S(=O)(=O)c1cccc(-c2n[nH]c(=S)n2CC(C)C)c1	i	0.96	2	103	nt	nt	nt
CC(O)(CS(=O)(=O)Cc1cccc(C(F)(F)F)c1)C(=O)Nc1cccc(C(F)(F)F)c1 (centres undefined)	i	0.92	-1	110	-3	113	-2.9
COc1cc(C(=O)NCC(c2cccs2)N(C)C)cc(Cl)c1OC(C)C (centres undefined)	i	0.99	7	211*[activator]	-76	90	-0.4
O=C(CSc1nnc2ccccn12)Nc1ncc(Cl)cc1Cl	i	0.99	-1	106	-66	160	-3.5
Cc1cc(=O)[nH]c(SCC(=O)c2ccc3c(c2)NC(=O)CO3)n1	i	0.97	nt	103	nt	nt	nt

Later entries:
SMILES	HSV replic up	HSV replic up primary fold	PKD1 kinase inh	RGS16-Gao	INS promoter inh	INS promoter inh cell count	GALR2 ag
COC(=O)Cc1c(O)ccn(Cc2ccc(OC)c(OC)c2)c1=O	i	0.89	0	100	60	129	nt
CCOCCCn1c(=NC(C)=O)c(C#N)cc2c(=O)n3ccccc3nc21	i	0.88	nt	97	nt	nt	nt
CC(=O)N/C(=C\c1cccs1)C(=O)O	i	1	-1	118	-55	110	nt
CN(C)c1ccc(/C=C2/NC(=O)NC2=O)cc1	nt	nt	-3	i	-31	81	-1.3
CN(C)c1nc2ccccc2c(N)c1-c1ccccc1	i	1	-9	104	25	83	-4.7
COC(=O)c1ccc(CN2C(=O)NC(CC(C)C)C2=O)cc1 (centres undefined)	i	1.1	4	100	nt	nt	nt
Oc1ccc2ccccc2c1C=Nc1ccccc1-c1nc2ccccc2[nH]1	i	0.95	2	101	32	77	-1.7
COC(=O)c1[nH]c2ccccc2c1NC(=O)CN1CCCCCC1	i	1	-12	112	19	100	-1.7
Cn1c(N=NC(=O)c2ccccc2)c(O)c2ccccc21	i	1.1	-5	106	4	89	-1.2
O=C(Nc1nnc(Cc2ccc([N+](=O)[O-])cc2)s1)Nc1ccccc1F	i	0.95	-9	103	56	147	nt
Cc1ccc(C)c(C(=O)CSc2nnnn2-c2cccnc2)c1	i	0.76	-10	102	0	114	-2.4
CCOc1ccc(-c2cc(NC(=O)Cn3ncc4c3-c3ccccc3OC4)on2)cc1OCC	i	0.91	-3	98	nt	nt	3.4
CC(=O)Nc1ccc(NC(=O)CSc2nnc3ccc(-c4ccc(F)cc4)nn23)cc1	i	0.96	6	99	21	101	nt
Cc1ccc2nc(Cc3ccc(N)cc3)oc2c1	i	1	10	101	9	110	-1.3
O=C(Cc1cccs1)Nc1cccc(C(=O)Nc2ccc(C(=O)O)cc2)c1	i	0.76	-4	101	nt	nt	nt
COC(=O)Cn1c(=NC(=O)c2cccc(OC)c2)sc2cc(OC)ccc21	i	0.95	2	104	nt	nt	0.0
COc1ccc(C)cc1NC(=O)CN1CCN(CC(=O)Nc2ccccc2F)CC1	nt	nt	1	101	38	66	-1.1
COc1ccc(C[C@H]2CN3C(=NC[C@@H]3Cc3ccccc3)N2CCNC(=O)CCC2CCCCC2)cc1	i	0.56	-11	99	nt	nt	nt

Four entries from above, as labelled records.
> O=C(Cc1cccs1)Nc1cccc(C(=O)Nc2ccc(C(=O)O)cc2)c1
  HSV replic up = i
  HSV replic up primary fold = 0.76
  PKD1 kinase inh = -4
  RGS16-Gao = 101
  INS promoter inh = nt
  INS promoter inh cell count = nt
  GALR2 ag = nt
> COC(=O)Cn1c(=NC(=O)c2cccc(OC)c2)sc2cc(OC)ccc21
  HSV replic up = i
  HSV replic up primary fold = 0.95
  PKD1 kinase inh = 2
  RGS16-Gao = 104
  INS promoter inh = nt
  INS promoter inh cell count = nt
  GALR2 ag = 0.0
> COC(=O)Cc1c(O)ccn(Cc2ccc(OC)c(OC)c2)c1=O
  HSV replic up = i
  HSV replic up primary fold = 0.89
  PKD1 kinase inh = 0
  RGS16-Gao = 100
  INS promoter inh = 60
  INS promoter inh cell count = 129
  GALR2 ag = nt
> CC(=O)N/C(=C\c1cccs1)C(=O)O
  HSV replic up = i
  HSV replic up primary fold = 1
  PKD1 kinase inh = -1
  RGS16-Gao = 118
  INS promoter inh = -55
  INS promoter inh cell count = 110
  GALR2 ag = nt
